# Screens: PubChem, Broad Institute
# FGF22 binding: binders of recombinant human FGF22 by thermal shift; calls only at 9.99 µM; SYPRO orange fluorescence; percent of sucrose octasulfate shift, DMSO zero; Q9HCT0; 340,000 compounds, 1.5% hits;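 active = melting point raised past a set limit in the mean and every replicate; inconclusive = no clear call; three in four hits are not shown here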
# Target sequence (Q9HCT0 whole entry, looked up): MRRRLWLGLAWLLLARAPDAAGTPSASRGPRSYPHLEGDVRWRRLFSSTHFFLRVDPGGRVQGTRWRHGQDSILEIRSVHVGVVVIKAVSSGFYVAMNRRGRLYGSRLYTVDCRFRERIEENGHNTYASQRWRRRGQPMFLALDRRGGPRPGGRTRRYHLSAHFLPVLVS
# T cruzi repl: T. cruzi replication inhibition. 300,000 compounds, 1.4% hits. inhibition, % (concentration not given with the values). T. cruzi beta-gal in NIH3T3, luminescence, 90 h. AID 1885;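 active = mean inhibition across valid replicates above about 55%, limit read from the data; inconclusive = mean below that limit but half or more replicates reach it; inactive = mean below it, under half of replicates reach it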;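 also: signal also drops with host cell toxicity which is not excluded here; 0% = plate median of DMSO wells and 100% = zero luminescence signal; higher percent means less beta-gal luminescence so fewer parasites; stock transfer was 50 nL into about 50 µL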
# Ecoli rRNA inh: selective bacterial rRNA inhibition in E. coli. GFP signal change (wild-type ribosome), % (test concentration not listed). AID 720706. E. coli WT GFP vs humanized-ribosome RFP mutants, fluorescence, 24 h; active compounds read low; DMSO median 0, no signal -100. 350,000 compounds, 1.6% hits;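 active = significant combined selectivity score with lowered wild-type GFP, culture density cut under 30%, mutant RFP and density less affected; inactive = any of these conditions unmet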; also: one replicate is shown; some compounds called inactive have numbers as strong as hits
# Beta apoptosis: blocks beta cell apoptosis; INS-1E cytokine-induced death, ATP luminescence, 48 h; percent of positive-control rescue, neutral wells zero; protection from apoptosis, % (concentration not given with the values); 300,000 compounds, 0.8% hits;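 active = all replicates at 75% or more, or half of them and the mean; inconclusive = half reach 75% but not the mean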;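 also: 0% = cytokine-treated negative control wells and 100% = positive control rescue; higher means more ATP so stronger rescue from cytokine killing; wells of about 40 µL received 100 nL stock; the first replicate is given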
# Calb FLC: C. albicans growth modulation with fluconazole. C. albicans CaCi-2 (fluconazole-resistant clinical isolate) + fluconazole, Alamar Blue growth, 48 h. growth inhibition, % (concentration not given with the values). 300,000 compounds, 0.57% hits. AID 1979;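 active = most replicates above 75%; inconclusive = exactly half above 75%; inactive = most below 75%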;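 also: all wells also contain fluconazole at 8 µg/ml as a sub-toxic cotreatment; 0% = median of DMSO wells and 100% = median of geldanamycin control wells; wells of about 8 µL received 7.5 nL stock; the first replicate is given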
# AF4-AF9 inh: inhibitors of human MLL-AF4/AF9 interaction. AlphaScreen, biotin-AF4 peptide binding to FLAG-AF9. inhibition, % at 10 µM. 350,000 compounds, 0.47% hits;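 active = every replicate reaching a set inhibition limit, whatever the replicate mean, cut at about 25% in these data; inconclusive = mean inhibition reaches that limit but some replicates miss it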;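 also: 0% = plate neutral control median and 100% = total signal loss; the record names both 10 and 1 µM as test concentration; the first replicate is given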
# Target sequence (P42568 whole entry, looked up): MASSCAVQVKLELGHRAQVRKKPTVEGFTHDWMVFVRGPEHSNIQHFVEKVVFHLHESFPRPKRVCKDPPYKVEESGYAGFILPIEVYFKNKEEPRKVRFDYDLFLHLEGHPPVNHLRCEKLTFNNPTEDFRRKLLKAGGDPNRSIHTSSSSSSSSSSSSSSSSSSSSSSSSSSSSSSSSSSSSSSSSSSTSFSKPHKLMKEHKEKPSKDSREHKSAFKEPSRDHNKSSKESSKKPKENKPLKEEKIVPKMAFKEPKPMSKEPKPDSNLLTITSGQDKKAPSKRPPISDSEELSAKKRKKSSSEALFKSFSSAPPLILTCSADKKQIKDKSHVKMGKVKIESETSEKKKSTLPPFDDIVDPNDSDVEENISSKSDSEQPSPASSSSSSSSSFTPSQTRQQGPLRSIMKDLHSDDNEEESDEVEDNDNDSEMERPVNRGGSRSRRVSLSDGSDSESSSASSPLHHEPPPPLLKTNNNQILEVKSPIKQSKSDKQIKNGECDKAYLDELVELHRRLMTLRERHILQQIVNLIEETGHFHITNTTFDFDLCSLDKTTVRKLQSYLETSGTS
# RanGTP-Impb inh: inhibitors of RanGTP-importin-beta interaction, primary screen, biochemical, FRET, CFP-Ran, YFP-importin-beta, homogeneous; 300,000 compounds, 1.1% hits; cell-free CFP-Ran/YFP-importin-beta FRET ratio; inhibition, % (test concentration not listed);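 active = most replicates above 15%; inconclusive = exactly half above 15%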;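 also: 0% = DMSO wells and 100% = Ran loaded with GDP instead of GTP; wells of about 40 µL received 100 nL stock; the first replicate is given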
# ALR inh: blocks human ALR sulfhydryl oxidase activity; AID 485317; purified ALR, DTT oxidation, H2O2 HRP-luminol luminescence; inhibition, % (concentration not given with the values); 290,000 compounds, 3.8% hits;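 active = mean and each replicate at 75% or more; inconclusive = only one of the two met; inactive = neither met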;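 also: stock transfer was 7.5 nL into about 7.5 µL; 0% = neutral wells and 100% = wells with inactivated enzyme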
# Target sequence (P55789 whole entry, looked up): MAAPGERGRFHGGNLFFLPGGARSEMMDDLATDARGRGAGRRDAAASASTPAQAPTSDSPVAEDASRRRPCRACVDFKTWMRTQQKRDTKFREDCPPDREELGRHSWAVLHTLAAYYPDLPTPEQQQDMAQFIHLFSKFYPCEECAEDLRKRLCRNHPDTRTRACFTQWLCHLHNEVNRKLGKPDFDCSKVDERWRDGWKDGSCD
# Ecoli rRNA inh OD600: second read-out of Ecoli rRNA inh, no call of its own (marks repeat the call); OD600 change, %; measured here: OD600 growth;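 optical density of the mix in the first replicate; 0 = DMSO median and -100 = no signal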
# Ecoli rRNA inh RFP: second read-out of Ecoli rRNA inh, no call of its own (marks repeat the call); RFP signal change, %; measured here: RFP humanized mutant strains;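 first replicate; 0 = DMSO median and -100 = no signal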
# Numbers without * were called inactive; i = inactive; ? = inconclusive; · = not tested or not shown.
structure	FGF22 binding	T cruzi repl	Ecoli rRNA inh	Ecoli rRNA inh OD600	Ecoli rRNA inh RFP	Beta apoptosis	Calb FLC	AF4-AF9 inh	RanGTP-Impb inh	ALR inh
CCC(CO)Oc1cc(NCc2ccccc2C(F)(F)F)c2ncn(C(C)C)c2c1 (stereo not given)	i	·	-8	-16	-0.4	2	·	·	·	-7
CCOc1ccc(Cn2nnc(C(=O)NCc3ccc(OC)cc3)c2N)cc1	·	1	8	14	-0.4	-1	-1	-2.2	-2.3	-13
CCS(=O)(=O)Nc1c(C(=O)OC)[nH]c2ccccc12	·	-10	·	·	·	-3	-3	·	-18	60
COC(=O)c1cc(C(=O)N2CCc3ccccc32)cc([N+](=O)[O-])c1	i	5	-10	-6	-4.2	-3	3	-4.6	-1.7	-6
O=C(CCC1CCCCC1)Nc1cc(C(F)(F)F)ccc1N1CCOCC1	i	11	6	7	-1.1	6	-23	-17	-3.6	-9
CCOC(=O)N1CCC(NC(=O)CCS(=O)(=O)c2ccc3c(c2)CCN3C(=O)CC)CC1	·	-4	·	·	·	-2	-1	·	-6.5	-7
COc1cc(C)c(Cc2cnc(N)nc2N)cc1OC	·	7	·	·	·	-10	·	·	2.4	-19
Cn1c(-c2ccccc2)cccc1=O	·	-6	·	·	·	5	-10	·	-2.6	-2
CSCCC(NC(=O)/C(=C/c1ccco1)NC(=O)c1ccc(Br)o1)C(=O)O (stereo not given)	i	-13	5	11	5.1	-4	1	-1.2	1.0	0
C/C(Cl)=C/Cn1c(SCCN2CCOCC2)nc2c1c(=O)[nH]c(=O)n2C	·	-4	·	·	·	6	-7	·	-1.6	0
Cn1c2ccc(F)cc2c2ncn(Cc3ccco3)c(=O)c21	·	-4	·	·	·	-15	-7	·	2.9	9
Cc1ccc2cccc(Oc3ncnc4scc(-c5ccccc5)c34)c2n1	i	3	-2	-7	0.7	7	0	-2.1	-1.1	6
c1ccc(-c2n[nH]c(-c3ccccc3)c2-c2nc3ccccc3[nH]2)cc1	·	18	·	·	·	7	53	·	2.7	-7
O=C(c1cccs1)N1N=C(c2ccc(O)cc2)CC1c1ccccc1 (stereo not given)	·	-10	·	·	·	2	-6	·	1.7	1
Cc1csc(NC(=O)c2cc(-c3ccco3)nc3ccccc23)n1	i	-13	-1	13	1.2	1	-14	8.9	?	0
Cc1ccc(O)c(C(=O)c2cc(C#N)c(=O)n(-c3nccs3)c2)c1	i	-4	-6	-6	25	-7	3	3.4	-0.2	·
Cc1ccc(C(=O)COC(=O)CCC(=O)Nc2cccc(Cl)c2)cc1[N+](=O)[O-]	·	-14	·	·	·	-4	2	·	-0.8	·
O=C(O)c1ccc2[nH]c3c(c2c1)CCCC3	i	5	-4	-3	-1.0	-1	13	-0.8	7.3	16
COc1ccccc1CNC(=O)CCCn1nc(C)n2ccnc2c1=O	i	-3	3	8	-2.3	-3	11	-11	-4.6	-17
COc1ccccc1C(=O)COC(=O)c1ccccc1OCC(=O)Nc1ccc(SC(F)F)cc1	i	28	-3	10	-1.8	18	18	-0.7	3.4	-23
O=C(NCCc1ccccc1)C(c1ccncc1)N(C(=O)c1csnn1)C1CC1 (stereo not given)	·	2	·	·	·	-5	-4	·	0.5	-15
COc1ccc(CN(C)C(=O)c2cccc(NS(=O)(=O)c3ccccc3)c2)cc1F	i	-6	-8	-10	-0.2	4	-1	?	0.0	-7
CN(Cc1ncc[nH]1)Cc1cn(-c2ccccc2)nc1-c1ccc2c(c1)OCO2	i	10	-5	-9	1.4	1	?	14	0.8	0
CCCOc1ccc(C(=O)NCc2cccnc2)cc1	·	-5	·	·	·	-6	-21	·	3.9	-2
COC(=O)c1nn(-c2ccc3c(c2)OCO3)cc1O	·	-5	·	·	·	-8	-6	·	1.2	8
CC1Cc2nc(SCC(=O)OCc3ccccc3)n(C)c(=O)c2S1 (stereo not given)	i	-5	-17	-26	-3.6	-4	-3	7.9	1.3	99*
COc1ccc(S(=O)(=O)N(C)C)cc1NC(=O)CSc1nnc(-c2cccnc2)o1	i	-4	11	1	-3.8	3	-13	-1.1	1.3	-3
O=C(COC(=O)c1ccc2ncsc2c1)NC(=O)c1ccccc1	i	-9	8	7	13	0	2	6.1	3.7	-26
CCCCn1c(CCn2nc(C)c(Br)c2C)n[nH]c1=S	i	-2	-12	-11	-0.6	2	11	-15	1.0	42
Cc1ccc(N(CC(=O)NCc2ccc(F)cc2)C(=O)CCC(=O)Nc2ccccn2)cc1C	i	9	-1	6	-1.6	-18	-1	-6.2	2.8	3
O=[N+]([O-])c1ccc(-c2nc(NCc3cccnc3)c3ccccc3n2)cc1	i	2	9	8	1.2	1	-9	-0.2	-0.6	-26
Cc1cc(C(=O)N2CCN(CCc3ccccc3)CC2)no1	i	-15	0	8	-1.0	-5	-25	5.3	1.4	-13
CCOC(=O)N1CCN(C(=O)c2ccc3c(=O)n(-c4ccc(OC)cc4)c(=S)[nH]c3c2)CC1	·	-2	·	·	·	1	1	·	-0.2	1
CC(C)NC(=O)NC(=O)COC(=O)C1(C)CC1(Cl)Cl (stereo not given)	i	-2	5	-3	-2.7	-4	-10	-6.8	6.7	-2
COc1ccc(/C=N/n2cnn(Cc3ccccc3Cl)c2=S)cc1	i	-10	-20	-32	-4.1	·	-5	-2.5	-0.9	-10
CC(C)(C)NC(=O)CSc1nc(-c2ccccc2)c(-c2ccccc2)[nH]1	·	-6	·	·	·	-4	-6	·	0.0	26
Cn1c(SCC(=O)c2ccccc2)nnc1-c1ccccn1	i	-3	0	-4	-0.2	-3	-6	0.3	4.4	-8
Cc1ccc(C(=O)CSc2nnc(C)s2)cc1	i	-9	-18	-32	-7.8	-4	-13	0.9	0.2	·
COc1cccc(OCc2nnc(SCC(=O)NCc3ccco3)n2CCc2ccccc2)c1	·	11	·	·	·	-12	12	·	-3.1	-4
CCc1c(C)nc2ncnn2c1N1CCC(C(=O)NCc2cccs2)CC1	·	5	·	·	·	2	-1	-0.2	0.3	1
O=C(NCc1ccccc1)Nc1cccn(Cc2ccc(F)cc2)c1=O	·	-4	·	·	·	0	15	·	?	-7
COc1ccc(C(CC(=O)NCc2ccccc2)Sc2n[nH]c(-c3ccccc3)n2)cc1 (stereo not given)	i	-21	6	10	-0.5	1	-32	-2.5	8.1	-5
COc1ccc(CCNC(=O)C2CCCN(S(C)(=O)=O)C2)cc1OC (stereo not given)	·	-23	·	·	·	-11	6	·	5.7	4
COc1ccc(Cl)cc1S(=O)(=O)N1CCCC(C(=O)NCCc2ccccc2)C1 (stereo not given)	i	12	3	3	-0.7	-9	6	-10	5.3	-4
CCOC(=O)C1=NN(c2ccc(F)cc2)C2=NC(C)=C(C(=O)OC)C(c3cccs3)N12 (stereo not given)	·	-7	·	·	·	-5	5	·	4.1	2
COC(=O)CSC1=C(C#N)C(c2ccccc2OC)C(C(=O)OC)C(=O)N1 (stereo not given)	·	-12	·	·	·	-2	6	·	2.7	15
Cc1c(C(=O)N2CCCCC2)sc(NC(=O)C(C)C)c1C#N	i	13	3	6	-0.7	2	-6	-11	?	-2
CNC(=O)C1C2C=CC3(O2)C1C(=O)N(C1CC1)C3C(=O)NCc1ccc(OC)cc1 (stereo not given)	·	-5	·	·	·	10	1	·	-2.3	0
COc1ccc(C=NCC2COc3ccccc3O2)cc1OC (stereo not given)	i	8	16	14	1.0	-6	-14	3.5	1.0	2
CCc1ccc(NC(=O)C2CCN(S(=O)(=O)c3c(C)noc3/C=C/N(C)C)CC2)cc1	i	14	4	10	-0.1	6	0	1.2	6.4	-2
COc1ccc(S(=O)(=O)N2CCC(C(=O)N3CCCCC3)CC2)cc1	i	8	3	-3	-1.9	-6	-1	1.5	4.1	·
Cc1ccc(NC(=O)c2nc[nH]c2C(=O)N2CCC(C)CC2)cc1	i	12	2	-1	-2.8	-2	-10	-6.6	0.6	-3
CCC(C(=O)N1CCN(S(=O)(=O)c2sc(C(=O)O)c(C)c2C(=O)O)CC1)c1ccccc1 (stereo not given)	i	·	·	·	·	-8	·	-1.1	·	-2
CCOc1c(OC)cc(C2C(C#N)=C(N)Oc3n[nH]c(-c4ccncc4)c32)cc1OC (stereo not given)	·	-5	·	·	·	-9	1	·	?	25
O=C(COC(=O)/C=C/c1ccccc1)Nc1ccccc1Br	i	-12	11	24	-0.9	-11	-7	0.5	-1.3	-2
COC(=O)c1ccc(Sc2ccc(Cl)cc2)c(N)c1	·	·	·	·	·	-6	15	·	-1.3	-5

# The results go on:
structure	FGF22 binding	T cruzi repl	Ecoli rRNA inh	Ecoli rRNA inh OD600	Ecoli rRNA inh RFP	Beta apoptosis	Calb FLC	AF4-AF9 inh	RanGTP-Impb inh	ALR inh
CC(=O)N1CCN(CC(=O)Nc2sccc2C#N)CC1	i	7	23	22	2.2	-5	?	1.1	-1.7	1
CCOc1ccc(NC(=O)CSc2nc3[nH]ncc3c(=O)n2-c2ccccc2OC)cc1	·	-3	·	·	·	-8	-5	·	-2.4	-55
CC1CN(C(=O)C2CCCC2)C(C)CN1C(=O)C1CCCC1 (stereo not given)	i	2	·	·	·	5	10	-0.1	0.4	-11
CCC12CN3CC(CC)(CN(C1)C31C(=O)N(C)c3ccc(C)cc31)C2=O (stereo not given)	·	-2	·	·	·	-2	1	-0.9	1.7	-14
COc1cc(/C=C2\SC(=S)N(N3CCOCC3)C2=O)cc(OC)c1OC	·	2	·	·	·	-9	4	·	-1.2	-9
COc1ccc(C(=O)c2ccc(OC)c(OC)c2)cc1OC	·	-17	·	·	·	2	?	·	2.0	1
O=C(NNC(=S)Nc1ccccc1Cl)C1CC1	i	-8	-1	11	0.1	0	-2	-8.5	-1.2	30
COc1ccc(S(=O)(=O)N(C)c2ccc(C(=O)Nc3cccnc3)cc2)cc1OC	i	0	-3	-9	0.5	-4	?	0.3	0.9	-19
O=C(CC(=O)c1ccccc1O)c1ccc(F)cc1	·	-12	·	·	·	15	-16	·	4.2	-4
CC(=O)N1c2ccc(S(=O)(=O)CCC(=O)O)cc2CC1C (stereo not given)	·	-1	·	·	·	1	2	·	24	0
O=C(Nc1ccc(C(F)(F)F)cc1)C1CCN(c2cnccn2)CC1	i	21	-31*	-12*	-6.2*	-2	-12	-1.0	-0.8	-2
Cc1ccc(/C=N/n2cnc3sc(C)c(C)c3c2=O)o1	i	-17	18	7	-0.5	3	7	3.8	0.7	?
CC(C)=NN1C(c2nonc2N)=NOC1(C)C	i	-20	11	4	0.1	-1	-11	-1.7	6.9	·
CC(=O)/C(=N/Nc1ccccc1[N+](=O)[O-])N1CCCc2ccccc21	i	3	-28*	-19*	-9.1*	4	11	22	-2.5	-1

# These rows are one share of the data; rates above refer to the full screens.
